TRPML1 inh – qHTS for Inhibitors of the Human Mucolipin Transient Receptor Potential 1 (TRPML1); Mucolipin-1 (Homo sapiens), Q9GZU1; TRPML1-inducible cells, Ca2+ dye fluorescence, FDSS; hits give low values; inhibition of EC80 agonist-evoked calcium signal; activity change, negative = inhibition, % (no concentration beside the values); 390,000 compounds, 0.02% hits; AID 624415, 2012; in the data active means activity change below about -50%; inconclusive means about -30% to -50%; inactive means above about -30%;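 note: stimulus is agonist 54-4 at its EC80 concentration; % is set by controls: 0 for no effect and ±100 for the full control effect; compound concentration not given in the record; the text of the record puts the active cut at -80%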
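Tet-induced TRPML1-DL cells loaded with Ca8 no-wash calcium dye were read kinetically on FDSS. Compound addition was followed by EC80 agonist 54-4 (4 uM final); inhibition was read over 110 s.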
Six1-Eya2 blk – qHTS Assay for Inhibitors of the Six1/Eya2 Interaction; AlphaScreen GST-Six1/His-Eya2 binding, biochemical; hits give low values; control for the full effect not named in the record; Homeobox protein SIX1 (Homo sapiens) + Protein phosphatase EYA2 (Homo sapiens), …; 360,000 compounds, 0.56% hits; activity change, % (concentration not given with the values); in the data active = activity change below about -65%; inconclusive = about -30% to -65%; inactive = above about -30%; note: % is set by controls: 0 for no effect and ±100 for the full control effect
Target sequence (O00167 whole entry, looked up): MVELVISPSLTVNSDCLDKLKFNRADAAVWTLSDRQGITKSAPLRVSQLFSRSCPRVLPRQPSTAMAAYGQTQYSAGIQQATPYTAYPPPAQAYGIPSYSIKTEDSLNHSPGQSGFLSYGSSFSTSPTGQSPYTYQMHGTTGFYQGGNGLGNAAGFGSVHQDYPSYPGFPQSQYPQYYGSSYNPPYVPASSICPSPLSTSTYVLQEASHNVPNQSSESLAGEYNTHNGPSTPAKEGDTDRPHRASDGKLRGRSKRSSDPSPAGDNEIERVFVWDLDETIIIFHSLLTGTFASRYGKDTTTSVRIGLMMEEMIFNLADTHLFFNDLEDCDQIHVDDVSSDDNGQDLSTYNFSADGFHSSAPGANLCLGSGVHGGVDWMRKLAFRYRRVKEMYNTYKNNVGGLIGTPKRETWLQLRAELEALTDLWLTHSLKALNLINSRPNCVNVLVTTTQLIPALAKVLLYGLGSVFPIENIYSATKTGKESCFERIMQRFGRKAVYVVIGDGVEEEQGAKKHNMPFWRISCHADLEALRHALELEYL
Target sequence (Q15475 whole entry, looked up): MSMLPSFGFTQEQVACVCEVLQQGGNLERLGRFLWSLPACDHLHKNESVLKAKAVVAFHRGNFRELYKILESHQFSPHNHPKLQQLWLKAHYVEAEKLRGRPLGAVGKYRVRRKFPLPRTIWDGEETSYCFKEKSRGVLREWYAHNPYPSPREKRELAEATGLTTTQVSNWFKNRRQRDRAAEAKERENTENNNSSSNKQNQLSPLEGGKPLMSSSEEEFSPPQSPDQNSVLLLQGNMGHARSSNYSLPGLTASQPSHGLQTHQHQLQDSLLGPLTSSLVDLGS
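Six1/Eya2 binding was read as AlphaScreen signal after compounds were pinned into GST-Six1 plus His-tagged Eya2 (5X stock 250/500 nM) in pH 8.0 Tris/NaCl/TCEP buffer, beads added, then incubated 1 h, 37 C, dark.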
PINK1 expr mod – A Quantitative High throughput Screen to Identify Chemical Modulators of PINK1 Expression; PINK1 immunofluorescence, high-content cytometry, 24 h; Potency, µM (top dose mostly 76.6 µM), inactives show at the top dose activation (PINK1 increase), most hits filed as activators; 410,000 compounds, 0.2% hits; AID 624263, 2012; active = well fitted activation curve with a large enough effect; inconclusive = small, poorly fitted or top-dose-only effect; inactive = flat fitted curve, though single readings scatter; cell line not stated here;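 note: potency is the fitted concentration of half-maximal effect; % of control where 0% means no effect; nearly all actives have a fitted effect of over 65% in size; a mitochondrial uncoupler was the plate control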
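Decision-based qHTS: stable cells, 24 h exposure to five compound concentrations, CCCP as control. Fixed cells stained for PINK1 plus nuclear, mitochondrial and cell markers, cytometer read.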
D2 ag – Beta-Arrestin HTS for Positive Allosteric Modulators of the Human D2 Dopamine Receptor: Agonists; D(2) dopamine receptor (Homo sapiens), P14416; DiscoveRx PathHunter D2 beta-arrestin, luminescence, 90 min; 100% = 57 uM dopamine signal; AID 624465, 2012; activation, % (test concentration not listed); 360,000 compounds, 0.084% hits; in the data active = activation above about 40%; inconclusive = about 15% to 40%; inactive = below about 15%; note: compound concentration not given in the record; the text of the record calls up to 30% inactive
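DiscoveRx PathHunter D2 beta-arrestin cells (2,100/well) attached overnight, then compound-stimulated 90 min at 37 C in HBSS/10 mM HEPES/0.1% Tween-20 buffer; beta-galactosidase complementation read by luminescence after 1 h at ambient temperature. Dopamine 57 uM final (EC100) as control.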
CtBP-E1A inh – qHTS Assay for Inhibitors of the CtBP/E1A Interaction; activity change, % (concentration not given with the values); 340,000 compounds, 0.49% hits; AlphaScreen GST-E1A/His-CtBP binding, 1536-well; hits give low values; control for the full effect not named in the record; CtBP / adenovirus E1A interaction (AlphaScreen); in the data active means activity change below about -65%; inconclusive means about -30% to -65%; inactive means above about -30%; note: % is set by controls: 0 for no effect and ±100 for the full control effect
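Steps: dispense buffer (Tris pH 8.0, NaCl 300 mM, TCEP 1 mM, BSA, Tween 20); add 5X protein mix (GST-E1A, His-CtBP, 125 nM each); pin 23 nL compound; 2 h at 37 °C, dark; add 5X beads (50 ug/mL); 1 h; read.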
TRPML1 agonist – qHTS for Agonists of the Human Mucolipin Transient Receptor Potential 1 (TRPML1). Mucolipin-1 (Homo sapiens), Q9GZU1. TRPML1-expressing cells, Ca2+ dye fluorescence, FDSS; host cell line not named in the record; reference of the full effect not given here. activation, % (no concentration beside the values). 410,000 compounds, 0.12% hits. AID 624414, 2012; in the data active = activation above about 50%; inconclusive = about 30% to 50%; inactive = below about 30%; note: 0% is about no effect; the text of the record puts the active cut at 80%
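Calcium fluorescence on an FDSS kinetic reader gave the read-out. Tet-induced TRPML1-DL cells were plated overnight, dye-loaded (Ca8 with quencher, 45-90 min, room temperature, dark), then read 110 s after compound addition, and again 110 s after 4uM final 54-4 (EC80).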
Active calls of the source: *; ? = inconclusive; . = no result given; & = joins results of further samples; [ ] = another dose, or the depositor's remark.

# | SMILES | CtBP-E1A inh | TRPML1 agonist | D2 ag | PINK1 expr mod | TRPML1 inh | Six1-Eya2 blk
1 | CC(OC(=O)c1cc(=O)[nH]c2ccccc12)C(=O)NC1CCCC1 (stereo not given) | -3 | 0.1 | 0.5 | -0.8% | -14 | 5
2 | O=C(CN1CCCCCC1=O)OCc1ncc(-c2ccccc2)o1 | 7 | 0.6 | -1.9 | -2.4% | 23 | 3
3 | CCOC(=O)c1c(C)oc2nc(C)nc(NCCc3ccc(OCC)cc3)c12 | . | -0.4 | . | -1.2% | -6 | .
4 | O=C(Cc1ccsc1)N1CCN(S(=O)(=O)c2ccccc2F)CC1 | -4 | 1.3 | -1.4 | -0.9% | -7 | 8
5 | OC1c2cc(Br)ccc2N=C2CCCN21 (stereo not given) | . | 1.2 | -5.5 | 1.4% | -14 | 5
6 | O=C(Nc1ccc(C(=O)N2CCCCC2)cc1)C1CCCC1 | 4 | 3.5 | 2.0 | -1.1% | 13 | 8
7 | O=C(CN1C(=O)NC2(CCCCC2)C1=O)NCCc1ccc(Cl)cc1Cl | 6 | 0.1 | -3.4 | -1.0% | -19 | 1
8 | O=C1CCC(=O)N1c1ccccc1OS(=O)(=O)c1ccccc1 | 10 | 0.4 | 2.0 | 3.9% | 14 | 1
9 | CC(C)c1ccc(N2C(=O)CC(Sc3ncn[nH]3)C2=O)cc1 (stereo not given) | -2 | -0.7 | -2.5 | -1.2% | -5 | 3
10 | COc1ccccc1CC(=O)Nc1ccc(S(=O)(=O)N2CCCCC2)cc1 | 0 | 0.4 | -1.0 | 0.5% | -2 | -9
11 | Cc1ccsc1/C=N/Nc1nc(=O)[nH]nc1C | -94* | 3.2 | -1.9 | 5.5% | 15 | -83*
12 | CN(C)/C=C/C(=O)Oc1ccc(Cl)cc1Cl | 0 | 3.7 | 2.5 | 0.2% | -8 | -2
13 | Cc1ccc(-c2nc3ccccc3[nH]2)cc1NC(=O)c1sc2ccccc2c1Cl | -1 | 1.7 | 0.9 | -1.6% | -9 | 4
14 | O=C(O)CN1C(=O)C2C3CC(C2C1=O)C1C(c2ccc(Cl)cc2)c2sc(=O)[nH]c2SC31 (stereo not given) | . | 0.5 | -1.0 | 1.1% | 6 | 0
15 | CCc1nnc(SCc2nc(-c3ccccc3F)oc2C)c2cc3sccc3n12 | . | 0.5 | . | -0.5% | -18 | .
16 | CC(NS(=O)(=O)c1ccc(Cl)cc1)C(c1cccs1)N1CCN(C)CC1 (stereo not given) | -6 | 1.5 | -3.9 | -2.2% | 3 | 5
17 | CCCc1cc(=O)n2[nH]c(-c3ccc(OC)cc3)nc2n1 | 1 | -0.8 | -3.5 | 1.5% | -10 | 0
18 | COc1ccc(/C(C)=N\n2cnnc2)cc1 | 4 | -0.8 | -2.4 | 0.3% | 16 | 1
19 | O=C(OCC(=O)N1CCCc2ccccc21)c1cccnc1Cl | 0 | 0.5 | -0.7 | 1.8% | -10 | -3
20 | O=C(O)C1=C[C@@H](c2coc3ccccc3c2=O)C[C@@H](OCc2ccc(CO)cc2)O1 | -1 | -0.4 | -0.7 | 0.8% | -7 | 1
21 | Cc1cc(NC(=O)CSc2nc(-c3cccc(F)c3)nc3c2c(=O)n(C)c(=O)n3C)no1 | . | -0.6 | . | 1.5% | 64 | .
22 | NC(=O)COc1c(-c2ccc(Br)o2)oc2ccccc2c1=O | . | -0.5 | -1.6 | -1.3% | -3 | -2
23 | COc1ccc(C)cc1NC(=O)CCCN1C(=O)CCC1=O | -1 | 0.4 | 0.7 | -1.5%[38.3 µM] | -2 | 1
24 | Cc1nc(SCC(N)=O)c([N+](=O)[O-])[nH]1 | 5 | -0.4 | -0.6 | 2.3% | -3 | 4
25 | O=C(Nc1ccc2nn(-c3ccccc3)nc2c1)c1cccnc1 | -21 | 1.4 | 0.0 | 4.7% | 8 | -14
26 | CCOC(=O)c1ccc(N/C(=N\S(=O)(=O)c2ccccc2C)c2ccccc2)cc1 | -5 | 0.6 | -1.4 | -0.7% | -2 | -15
27 | N#CCSc1nc2ccccc2c2nc3ccccc3n12 | -4 | 0.4 | -0.5 | -0.6% | -6 | -12
28 | O=C(CCc1ccccc1)Nc1nc2ccc(S(=O)(=O)N3CCOCC3)cc2s1 | 9 | 1.3 | 2.5 | 8.5% | -10 | 8
29 | COc1ccc(CCNC(=O)c2ccc3c(c2)ncn3-c2ccc(C)cc2C)cc1OC | . | 1.8 | . | 0.8% | -13 | .
30 | CCOC(=O)c1ccc(S(=O)(=O)N2CCN(CC(=O)NC(=O)NC(C)(C)C)CC2)cc1 | -8 | 2.6 | 0.4 | -3.4% | 6 | 2

Quoted at random: two compounds from above.
# | SMILES | CtBP-E1A inh | TRPML1 agonist | D2 ag | PINK1 expr mod | TRPML1 inh | Six1-Eya2 blk
16 | CC(NS(=O)(=O)c1ccc(Cl)cc1)C(c1cccs1)N1CCN(C)CC1 (stereo not given) | -6 | 1.5 | -3.9 | -2.2% | 3 | 5
17 | CCCc1cc(=O)n2[nH]c(-c3ccc(OC)cc3)nc2n1 | 1 | -0.8 | -3.5 | 1.5% | -10 | 0

(continued)
# | SMILES | CtBP-E1A inh | TRPML1 agonist | D2 ag | PINK1 expr mod | TRPML1 inh | Six1-Eya2 blk
31 | COc1cc(CN2C[C@@H](CO)O[C@@H](n3cnc4c(NC5CCC5)ncnc43)C2)cc(OC)c1OC | 6 | -0.6 | -0.6 | 2.0% | . | -1
32 | O=C(O)C1=CCCNC1 | 0 | -0.4 | -4.1 | 1.0%&0.1% | 0 | -2
33 | CSC1=N/C(=C\c2ccc(C)o2)C(=O)S1 | -3 | -1.2 | -3.4 | -2.8% | 3 | -2
34 | CCOCCCNC(=O)C(NC(=O)C1CCC(C)CC1)C(C)C (stereo not given) | . | -0.5 | . | 3.0% | -3 | .
35 | CCn1c(SCC(=O)NC2CCCCC2)nnc1-c1ccco1 | 0 | 0.5 | -0.7 | 1.2% | 3 | 5
36 | CCN(C(=O)CSc1n[nH]c(-c2ccccc2)n1)c1c(N)n(Cc2ccccc2)c(=O)[nH]c1=O | 1 | 0.4 | -4.7 | -0.2% | -7 | 11
37 | COc1ccc(CNC(=O)c2ccc3nc(CCc4ccccc4)oc3c2)c(OC)c1 | . | -0.2 | . | -0.4% | 9 | .
38 | COc1cc(/C=N/NC(=O)Cc2cccs2)c([N+](=O)[O-])cc1OC | -11 | -0.1 | -0.7 | -0.6% | 5 | -16
39 | CCOC(=O)c1ccc(NC(=O)c2ccc(=O)n(Cc3cccc(C)c3)c2)cc1 | . | 2.9 | . | -4.1% | -16 | .
40 | CCC(C)NC(=O)CN1C(=O)CSc2ccc(S(=O)(=O)N3CCCC3)cc21 (stereo not given) | -3 | 0.5 | 7.1 | 0.8% | ? | 8
41 | CC[C@@]1(C(=O)OC)N[C@H](CN(C)C(=O)COC)[C@@H]2C(=O)N(C)C(=O)[C@@H]21 | 8 | 0.4 | -1.3 | -0.5% | -13 | 14
42 | COc1ccccc1NC(=O)CC(=O)Nc1ccccc1OC | -7 | 1.6 | 1.2 | 3.7% | 5 | 27
43 | COc1cc(C#N)c(NC(=O)CN2CCN(CCO)CC2)cc1OC | 7 | -0.4 | -4.5 | -1.0% | 13 | 6
44 | Cc1ccc(OCC(=O)NC(=S)Nc2ccc(Br)cn2)cc1C | 4 | 0.2 | -0.9 | 18% | 4 | 8
45 | COc1cc(-c2noc(-c3nnn(-c4ccc(Cl)cc4)c3C)n2)cc(OC)c1OC | . | -0.1 | . | 0.2% | -2 | .
46 | CCN(CC)CCNC(=O)Cn1ncc2ccccc2c1=O | 1 | 0.4 | 0.7 | -1.2% | 13 | 3
47 | CC(C)(Sc1ccc(CCN(CCCCC2CCCCC2)C(=O)NC2CCCCC2)cc1)C(=O)O | -2 | 5.1 | -2.1 | 5.4% | -1 | -6
48 | Cc1c(OCC(=O)NC(Cc2ccc(Cl)cc2)C(=O)O)ccc2c3c(c(=O)oc12)CCC3 (stereo not given) | 0 | . | 1.1 | 1.6% | . | 0
49 | Cc1cc(NC(=O)c2ccc(N3CCCC3)c([N+](=O)[O-])c2)no1 | -1 | 0.2 | -6.3 | 1.7% | -6 | -8
50 | COc1ccccc1S(=O)(=O)Cc1ccc(C(=O)NC(C)c2ccc3c(c2)OCCO3)o1 (stereo not given) | 0 | 1.2 | -0.8 | 0.2% | -12 | 2
51 | O=C(NC1CCCC1)c1cc(-c2ccc(Cl)c(Cl)c2)on1 | 9 | -1.1 | 0.4 | 4.3% | -5 | 4
52 | COc1cc(OC)cc(C(=O)NCCOC23CC4CC(CC(C4)C2)C3)c1 | 3 | -0.3 | -1.1 | 2.3% | 8 | -2
53 | Cc1ccc(NC(=O)C2CCCN(C3=NS(=O)(=O)c4ccccc43)C2)c(O)c1 (stereo not given) | . | 0.2 | -1.3 | 1.1% | -10 | -7
54 | COc1ccc(S(=O)(=O)CCC(=O)NCc2ccc(C)o2)cc1 | -1 | 0.2 | -3.3 | 2.2% | 21 | -4

Reformatted: results already given.
Below each SMILES: CtBP-E1A inh | TRPML1 agonist | D2 ag | PINK1 expr mod | TRPML1 inh | Six1-Eya2 blk
#27 N#CCSc1nc2ccccc2c2nc3ccccc3n12
    -4 | 0.4 | -0.5 | -0.6% | -6 | -12
#28 O=C(CCc1ccccc1)Nc1nc2ccc(S(=O)(=O)N3CCOCC3)cc2s1
    9 | 1.3 | 2.5 | 8.5% | -10 | 8
#29 COc1ccc(CCNC(=O)c2ccc3c(c2)ncn3-c2ccc(C)cc2C)cc1OC
    . | 1.8 | . | 0.8% | -13 | .
#30 CCOC(=O)c1ccc(S(=O)(=O)N2CCN(CC(=O)NC(=O)NC(C)(C)C)CC2)cc1
    -8 | 2.6 | 0.4 | -3.4% | 6 | 2
#31 COc1cc(CN2C[C@@H](CO)O[C@@H](n3cnc4c(NC5CCC5)ncnc43)C2)cc(OC)c1OC
    6 | -0.6 | -0.6 | 2.0% | . | -1
#32 O=C(O)C1=CCCNC1
    0 | -0.4 | -4.1 | 1.0%&0.1% | 0 | -2
#33 CSC1=N/C(=C\c2ccc(C)o2)C(=O)S1
    -3 | -1.2 | -3.4 | -2.8% | 3 | -2
#34 CCOCCCNC(=O)C(NC(=O)C1CCC(C)CC1)C(C)C (stereo not given)
    . | -0.5 | . | 3.0% | -3 | .
#35 CCn1c(SCC(=O)NC2CCCCC2)nnc1-c1ccco1
    0 | 0.5 | -0.7 | 1.2% | 3 | 5
#36 CCN(C(=O)CSc1n[nH]c(-c2ccccc2)n1)c1c(N)n(Cc2ccccc2)c(=O)[nH]c1=O
    1 | 0.4 | -4.7 | -0.2% | -7 | 11
#37 COc1ccc(CNC(=O)c2ccc3nc(CCc4ccccc4)oc3c2)c(OC)c1
    . | -0.2 | . | -0.4% | 9 | .
